PABP FP inh – PABP poly(A) RNA binding inhibitors, primary screen, biochemical, fluorescence polarization, uHTS | inhibition, % at 35 µM | hit rate 1% among 290,000 | AID 2014, 2009;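 active means 50% or more with normal probe brightness, or confirmed in later tests; inconclusive means above 50% with abnormal brightness, or retests that disagree; inactive means below 50% or failed in later tests; about a fifth of its hits are not listed in these tables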;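 further: calls also rest on retests at 20 µM and on dose response follow-up; controls were probe without protein and protein plus probe with vehicle; some compounds called inactive have numbers as strong as hits; many hits fall short of the cut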
Target sequence (P11940 whole entry, looked up): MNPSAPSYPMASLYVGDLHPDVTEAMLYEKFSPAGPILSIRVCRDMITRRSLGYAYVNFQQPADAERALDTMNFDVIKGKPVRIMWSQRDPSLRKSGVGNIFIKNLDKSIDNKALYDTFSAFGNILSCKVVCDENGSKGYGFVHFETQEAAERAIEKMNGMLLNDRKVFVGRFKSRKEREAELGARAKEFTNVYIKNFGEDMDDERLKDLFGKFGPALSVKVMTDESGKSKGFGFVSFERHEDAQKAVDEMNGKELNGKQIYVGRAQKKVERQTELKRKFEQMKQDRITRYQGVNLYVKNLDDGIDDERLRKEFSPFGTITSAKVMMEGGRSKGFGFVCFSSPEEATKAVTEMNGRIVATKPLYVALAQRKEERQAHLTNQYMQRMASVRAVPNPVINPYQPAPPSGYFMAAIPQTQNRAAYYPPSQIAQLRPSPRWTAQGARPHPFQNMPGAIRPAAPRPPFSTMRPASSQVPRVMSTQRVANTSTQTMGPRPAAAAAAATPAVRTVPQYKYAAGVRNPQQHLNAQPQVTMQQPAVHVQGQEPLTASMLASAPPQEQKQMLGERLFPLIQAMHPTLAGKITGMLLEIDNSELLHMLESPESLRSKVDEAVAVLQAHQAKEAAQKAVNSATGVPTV
Yeast UUG start – modulators of yeast start codon fidelity, primary screen, whole organism, S. cerevisiae, single point, plate reader; S. cerevisiae UUG-firefly luciferase reporter, luminescence/redox ratio; activity score, % at 18.7 µM; hit rate 0.13% among 350,000; AID 602363, 2012;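 active means replicate mean at a twofold rise or more, about +100% in these data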;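 further: firefly luciferase made from a UUG start codon reports start codon fidelity; reporter light over untreated wells divided by growth signal over untreated wells; some hits fall short of that in this replicate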
eIF4H FP inh – human eIF4H binding inhibitors, primary screen, translation initiation inhibitor project, biochemical, uHTS, fluorescence polarization. eIF4H fluorescence polarization binding assay. hit rate 0.94% among 290,000. AID 2012, 2009. inhibition, % at 35 µM;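 active means 50% or more with normal probe brightness, or confirmed in later tests; inconclusive means above 50% with abnormal brightness, or retests that disagree; inactive means below 50% or failed in later tests; about a fifth of its hits are not listed in these tables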;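 further: calls also rest on retests at 20 µM and on dose response follow-up; 0% = protein and probe with vehicle and 100% = probe without protein; strong numbers were not always called active; many hits fall short of the cut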
CSC inhib – cancer stem cell viability inhibitors, primary screen, luminescence; cancer stem cell-like cells viability; inhibition, % at 7.5 µM; hit rate 1.1% among 300,000;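 active means mean at 75% or more and at least half the replicates too; inconclusive means mean and replicates disagree; tested in HMLE shEcad cells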;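 further: 0% = median of negative and 100% = median of positive control wells; the first replicate is given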
MT1-MMP act inh – blockers of MT1-MMP proenzyme processing, primary screen, HT1080 RFP-PRO-GFP cells, GFP/RFP fluorescence | GFP/RFP ratio fluorescence, overnight; percent of plate control window, DMSO zero | GFP/RFP ratio change, % at 20 µM | hit rate 0.061% among 360,000 | AID 651647, 2012;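 active means GFP/RFP ratio change of at least 30% with cell ATP level not reduced by more than half and red fluorescence within 50% of control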; further: strong numbers were not always called active
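Assay system: HT1080 cells carrying an RFP-PRO-GFP reporter | Dosing: Single dose of 20 µM compound, 1% DMSO final | Incubation: Cells overnight before dosing, compound overnight, 37 °C, 5% CO2 | Evaluation: GFP/RFP fluorescence ratio | Control set: DMSO and RFP-L50D-GFP cell wells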
Env fusion inh – inhibitors of HIV-1 Env-driven cell-cell fusion, primary screen, HeLa-JRFL effector, CEM21 target cells, luciferase | inhibition, % at 12.3 µM | hit rate 1.1% among 360,000;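 active means mean replicate inhibition score of at least 50 and every replicate individually at or above 50; inconclusive means only one of the two criteria met; inactive means mean below 50 and not all replicates reaching 50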;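 further: 0% = plate neutral controls and 100% = maraviroc near 300 nM; one replicate is shown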
Rce1 inh – yeast Rce1p protease inhibitors, primary screen, biochemical, fluorescence, cell-free homogeneous; CAAX prenyl protease 2 (Saccharomyces cerevisiae (strain ATCC 204508 / S288c)), Q03530; yeast membranes, quenched prenylated peptide cleavage fluorescence; calls only; hit rate 0.27% among 290,000;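 active means fall in fluorescence gain of 50% or more versus controls, with final raw signal at or below 3038400; inconclusive means same 50% fall but final raw signal above 3038400; inactive means fall in fluorescence gain under 50%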;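 further: plate controls were neutral control wells for no effect and wells lacking membranes for full effect; tested at 10 µM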
MT1-MMP act inh RFP – recorded beside MT1-MMP act inh, whose call it bears; RFP signal change, %; measured here: RFP expression control read;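 0 = vehicle wells; hits needed this value within 50% of zero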
The depositor's hits bear a star; i = inactive; ? = inconclusive; / = no result given; & = joins results of further samples; [ ] = another dose, or the depositor's remark.

Molecule	Rce1 inh	Env fusion inh	MT1-MMP act inh	PABP FP inh	eIF4H FP inh	CSC inhib	Yeast UUG start	MT1-MMP act inh RFP
Cc1cc(Cl)c2oc(C(=O)NCCN3CCCCC3CO)c(C)c2c1 (centres undefined)	i	-3	-3	-4	3	-6	-2	1
O=C(Nc1ccccc1Cl)/C(Cl)=C(\Cl)S(=O)c1ccccc1 (centres undefined)	i	-98	-25	-4	4	145*	/	-35
Cc1cc(C)c2c(CN3CC(C)OC(C)C3)cc(=O)oc2c1C (centres undefined)	i	0	1	1	-5	-11	-11	-2
C=C(C)COc1ccc(-c2ncnc(C(F)(F)F)c2-c2ccc(OC)cc2)c(O)c1	i	-1	-3	0	-2	24	-11	-3
CCCCn1c(N)c(N(CC(C)C)C(=O)CCCSc2nncs2)c(=O)[nH]c1=O	i	12	0	6	4	-13	3	2
CCn1c(/C=C2\C(=O)Nc3ccccc32)nc2ccccc2c1=O	i	-29	-4	-8	-4	/	/	-4
O=C(NCCc1ccccc1)C1CCN(C2CCN(Cc3ccco3)CC2)CC1	i	-4	0	-1	0	-8	1	2
CCOC(=O)C1=C(C)N(C[C@@H]2CC[C@@H](Cc3ccc4cc(OC)ccc4c3)O2)C(=O)NC1c1ccccc1 (some centres undefined)	/	37	-5	/	/	/	-18	-23
CC(=O)NC1=NN(C(C)=O)C(c2ccc(C(C)C)cc2)S1 (centres undefined)	i	8	-1	-2	-9	/	-22	4
O=C(CCc1ccccn1)N1CCCC(N2CCN(c3ccc(F)cc3)CC2)C1 (centres undefined)	i	7	-4	-7	0	/	-12	-2
CN1C(CC(=O)Nc2ccc(Cl)cc2Cl)c2ccccc2CC1(C)C (centres undefined)	i	16	-10	12	5	-2	-7	-11
COc1ccc(C(=O)NC23CC4CC(CC(C4)C2)C3)cc1	i	22	-1	10	6	20	-10	0
Cn1c(NCCN2CCCC2)nc2cc(-c3ccccc3)sc2c1=O	/	-6	5	/	/	/	13	7
COc1ccc(N2CCN(C(c3cccc(OC)c3OC)c3nnnn3C3CCCC3)CC2)cc1 (centres undefined)	i	/	-8	7	-1	5	14	-6
COc1cccc(NC(=O)C2CCN(S(=O)(=O)c3ccc4c(c3)N(C(C)=O)CCO4)CC2)c1	i	0	2	-2	-7	-16	12	-1
C[C@H]1CN([C@@H](C)CO)C(=O)CCCn2cc(nn2)CO[C@@H]1CN(C)C(=O)NC1CCCCC1	/	-449	7	/	/	/	4&-6	8
CCOc1ccc(NC(=O)c2cc(F)c(F)cc2Cl)cc1OCC	i	-12	2	-6	-6	3	-9	-1
C[C@H]1CN([C@@H](C)CO)C(=O)Cc2cc(NS(=O)(=O)c3ccc(Cl)cc3)ccc2O[C@@H]1CN(C)C(=O)Nc1cccc2ccccc12	/	-11[16.7 µM]	4	/	/	/	-4&-5	6
COc1cc(NC(=O)c2cc([N+](=O)[O-])ccc2NC(=O)CNC2CCCCC2)cc(OC)c1	i	7	-2	-10	3	-7	-6	-7
CCOP(=O)(OCC)C(NC(=O)Nc1ccc(Cl)c(Cl)c1)C(N)=O (centres undefined)	i	-12	-5	3	-8	8	/	4
O=C(O)c1cccc(N2C(=O)CSC2c2ccccc2)c1 (centres undefined)	i	-3	-6	-3	-5	-7	-4	0
Cc1nn(Cc2ccc(Cl)cc2Cl)c(C)c1NC(=O)c1nn(C)cc1Cl	i	-15	0	-4	1	-7	-3	-6
O=S(=O)(Nc1nc2ccccc2nc1Nc1ccc2c(c1)OCCO2)c1cccs1	i	/	-22	40	39	/	-20	-4
c1ccc(N=NN2CCOCC2)cc1	/	12	1	/	/	/	-1	9
COc1ccccc1C1CC(c2ccc(Cl)cc2Cl)Nc2nc(N)nn21 (centres undefined)	i	-2	1	3	-1	-10	-21	1
NC(=S)N=Nc1c(O)n(CCCl)c2ccc(Cl)cc12	i	-1	9	-9	12	23	-19	1
O=S(=O)(c1ccccc1)N1CCNCC1	i	1	1	/	/	0	/	1
CC1=C(C(=O)OCCOC(C)C)C(c2cc3c(cc2Br)OCO3)C2=C(CCCC2=O)N1 (centres undefined)	i	-34	-12	6	10	-5	-2	-6
CC(=O)Nc1ccc(S(=O)(=O)N2CCN(Cc3csc(C)n3)CC2)cc1	i	-50	-1	0	-4	-7	-19	1
CCCCCCCNC(=O)C1(CC2CC(c3ccc(Cl)cc3)=NO2)CCN(C(=O)C2CCCC2)CC1 (centres undefined)	i	-1	-7	1	1	-2	-7	-4
Cc1ccc(-c2ccc(CN3C(C(C)C)C(=O)N(Cc4cn(CC5CCCCC5)nn4)CCS3(=O)=O)cc2)cc1 (centres undefined)	/	3	-8	/	/	/	-17	-9
O=C(CC1N=C2c3ccccc3N=C(SCc3ccc(F)cc3)N2C1=O)NCc1ccco1 (centres undefined)	i	-69	-3	4	28	5	-14	4
CCOC(=O)C(c1ccccc1)C(Nc1cc(C(F)(F)F)cc(C(F)(F)F)c1)c1ccccn1 (centres undefined)	i	67*	-3	-1	2	/	/	-3
Cn1c(=O)c(=O)n(C)c2cc(S(=O)(=O)N3CCCC3C(=O)NCc3cccs3)ccc21 (centres undefined)	i	11	3	1	-11	4	-2	6
Cc1ccccc1C1NC(c2ccccc2C)C(C)C(=O)C1C (centres undefined)	i	5	-6	6	6	-4	-22	-4
Cc1cc(C)cc(N(C(=O)c2csnn2)C(C(=O)NC(C)(C)C)c2cccnc2)c1 (centres undefined)	i	-8	0	3	-4	-12	/	5
Cc1ccc(C2Nc3ccccc3C(=O)N2CCCN2CCOCC2)cc1 (centres undefined)	i	-6	0	2	-5	-12	/	4
O=C(NN1C(=O)c2ccccc2NC1c1cccnc1)c1ccc([N+](=O)[O-])cc1 (centres undefined)	i	-1	1	8	-5	5	-14	1
Cc1cc(NS(=O)(=O)c2ccc(NC(=O)/C=C/c3ccccc3)cc2)nc(C)n1	/	i	-1	/	/	-18	1	-4
CN(Cc1nc(-c2cnccn2)no1)CC(O)c1ccccc1 (centres undefined)	i	-6	-6	-16	-2	-9	15	0
COc1ccc2cc(C3=CC(=O)C[C@H](c4ccc5c(c4)OCO5)C3)ccc2c1	/	-9	0	/	/	27	-20	-1
O=C(c1c(F)cccc1F)N(Cc1cccs1)C1CCCC1	i	13	-2	-7	2	-3	-14	-1
Cc1cc(NC(=O)COC(=O)Cn2c(C)csc2=O)ccc1Br	i	-1	2	3	-1	-4	-3	5
Cc1cccc(C)c1OCc1cc(C(=O)N2CCCCCCC2)no1	i	-5	1	4	-22	3	6	1
C1CN=C(NC23CC4CC(CC(C4)C2)C3)C1	i	1	3	5	6	-3	/	5
CCOc1ccc(C(=O)Nc2ccc(N3CCCC3)cc2)cc1	i	/	5	-5	8	7	/	0
COc1ccc(CCNC(=O)c2cccc(NS(=O)(=O)c3ccccc3F)c2)cc1OC	i	12	2	1	-8	1	-14	-1
COc1cc(/C=C2/C(=O)ON=C2c2ccccc2)ccc1O	i	25	-3	23	-6	-3	-16	0
O=C(COC(=O)c1ccc(O)cc1O)NC(=O)Cc1ccccc1	/	6	-2	/	/	/	-7	0
C[n+]1cccc(C(=O)[O-])c1	/	-24	1	/	/	-10	-9	0

Single records, from the list above.
Listed for `CC(=O)NC1=NN(C(C)=O)C(c2ccc(C(C)C)cc2)S1` (centres undefined) = Rce1 inh: i; Env fusion inh: 8; MT1-MMP act inh: -1; PABP FP inh: -2; eIF4H FP inh: -9; CSC inhib: /; Yeast UUG start: -22; MT1-MMP act inh RFP: 4
Listed for `O=C(CCc1ccccn1)N1CCCC(N2CCN(c3ccc(F)cc3)CC2)C1` (centres undefined) = Rce1 inh: i; Env fusion inh: 7; MT1-MMP act inh: -4; PABP FP inh: -7; eIF4H FP inh: 0; CSC inhib: /; Yeast UUG start: -12; MT1-MMP act inh RFP: -2

New compounds follow.
Molecule	Rce1 inh	Env fusion inh	MT1-MMP act inh	PABP FP inh	eIF4H FP inh	CSC inhib	Yeast UUG start	MT1-MMP act inh RFP
O=C(c1cc(-c2ccncc2)nc2c(Cl)cccc12)N1CCN(c2ccccc2F)CC1	i	/	2	0	-4	20	-3	-14
Cc1c(C(=O)Nc2ccccc2F)sc2ncn(CC(=O)N3CCOCC3)c(=O)c12	i	-5	5	-2	4	-16	-20	1
CCCCn1nc(CC(=O)NCCN(CC)CC)c2ccccc2c1=O	i	-4	-3	-3	3	-13	/	4
O=C(Nc1nnc(C2CC2)s1)C1=NN(C2CCS(=O)(=O)C2)C(=O)CC1 (centres undefined)	i	-2	2	-1	-5	1	/	15
Cc1nnc(N2CCOCC2)c2ccccc12	i	-70	-4	-5	-4	12	-7	6
C/C(=N\NC(=S)NC1CCCCC1)c1cccs1	i	1	1	19	11	-6	-32	-5
COCC(C)n1c(C)cc(C(=O)CSc2ncccn2)c1C (centres undefined)	i	-17	-3	12	11	3	/	0
CCOc1cc(/C=N\Nc2ccc([N+](=O)[O-])cc2)ccc1OCC(=O)Nc1ccc(C)c(C)c1	i	/	-175	?	?	0	-20	1
NC(=O)c1cc(S(=O)(=O)NCCCc2ccco2)cs1	i	8	3	6	-4	-1	-8	-8

2 successive records already listed:
Molecule	Rce1 inh	Env fusion inh	MT1-MMP act inh	PABP FP inh	eIF4H FP inh	CSC inhib	Yeast UUG start	MT1-MMP act inh RFP
CCOc1cc(/C=N\Nc2ccc([N+](=O)[O-])cc2)ccc1OCC(=O)Nc1ccc(C)c(C)c1	i	/	-175	?	?	0	-20	1
NC(=O)c1cc(S(=O)(=O)NCCCc2ccco2)cs1	i	8	3	6	-4	-1	-8	-8
